TRPML1 agonist – human mucolipin-1 channel agonism | Q9GZU1 | TRPML1-expressing cells, Ca2+ dye fluorescence, FDSS; host cell line not named in the record; reference of the full effect not given here | activation, % (concentration not given with the values) | 410,000 tested, 0.12% active; in the data active = activation above about 50%; inconclusive = about 30% to 50%; inactive = below about 30%; note: 0% is about no effect; the text of the record puts the active cut at 80%
Target sequence (Q9GZU1 whole entry, looked up): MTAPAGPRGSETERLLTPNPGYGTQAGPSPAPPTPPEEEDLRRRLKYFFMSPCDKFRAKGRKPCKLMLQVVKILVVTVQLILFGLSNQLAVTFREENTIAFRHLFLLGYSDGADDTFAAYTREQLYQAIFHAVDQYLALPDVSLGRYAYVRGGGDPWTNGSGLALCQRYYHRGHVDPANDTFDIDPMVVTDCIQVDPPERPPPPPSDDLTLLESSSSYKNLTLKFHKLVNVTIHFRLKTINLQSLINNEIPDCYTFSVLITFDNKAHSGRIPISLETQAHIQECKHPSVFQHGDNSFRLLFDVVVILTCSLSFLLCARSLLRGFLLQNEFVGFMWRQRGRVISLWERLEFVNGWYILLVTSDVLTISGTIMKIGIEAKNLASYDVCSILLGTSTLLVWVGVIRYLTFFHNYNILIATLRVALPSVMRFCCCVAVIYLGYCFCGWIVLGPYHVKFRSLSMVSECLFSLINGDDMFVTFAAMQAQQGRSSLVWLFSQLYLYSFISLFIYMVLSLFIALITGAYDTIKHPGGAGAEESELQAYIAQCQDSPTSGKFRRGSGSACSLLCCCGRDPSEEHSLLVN
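Calcium fluorescence on an FDSS kinetic reader gave the read-out. Tet-induced TRPML1-DL cells were plated overnight, dye-loaded (Ca8 with quencher, 45-90 min, room temperature, dark), then read 110 s after compound addition, and again 110 s after 4uM final 54-4 (EC80).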
D2 agonist – activates the human D2 dopamine receptor; activation, % (concentration not given with the values); AID 624465; 360,000 tested, 0.084% active; DiscoveRx PathHunter D2 beta-arrestin, luminescence, 90 min; 100% = 57 uM dopamine signal; in the data active = activation above about 40%; inconclusive = about 15% to 40%; inactive = below about 15%; note: compound concentration not given in the record; the text of the record calls up to 30% inactive
Target sequence (P14416 whole entry, looked up): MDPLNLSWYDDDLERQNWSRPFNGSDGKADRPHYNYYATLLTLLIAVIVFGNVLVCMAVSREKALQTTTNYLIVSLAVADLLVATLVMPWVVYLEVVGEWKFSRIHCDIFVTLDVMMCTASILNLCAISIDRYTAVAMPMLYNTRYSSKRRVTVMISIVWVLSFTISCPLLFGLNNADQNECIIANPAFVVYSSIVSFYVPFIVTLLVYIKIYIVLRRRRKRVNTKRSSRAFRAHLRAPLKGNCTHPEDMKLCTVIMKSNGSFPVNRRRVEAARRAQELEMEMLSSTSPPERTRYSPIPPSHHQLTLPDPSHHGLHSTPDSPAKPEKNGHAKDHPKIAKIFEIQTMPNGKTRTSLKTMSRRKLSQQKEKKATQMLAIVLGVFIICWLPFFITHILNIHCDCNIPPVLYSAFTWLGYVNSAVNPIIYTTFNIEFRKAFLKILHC
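DiscoveRx PathHunter D2 beta-arrestin cells (2,100/well) attached overnight, then compound-stimulated 90 min at 37 C in HBSS/10 mM HEPES/0.1% Tween-20 buffer; beta-galactosidase complementation read by luminescence after 1 h at ambient temperature. Dopamine 57 uM final (EC100) as control.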
TRPML1 inh – human mucolipin-1 channel inhibition; TRPML1-inducible cells, Ca2+ dye fluorescence, FDSS; active compounds read low; inhibition of EC80 agonist-evoked calcium signal; activity change, negative = inhibition, % (concentration not given with the values); 390,000 tested, 0.02% active; in the data active means activity change below about -50%; inconclusive means about -30% to -50%; inactive means above about -30%;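 note: stimulus is agonist 54-4 at its EC80 concentration; % is set by controls: 0 for no effect and ±100 for the full control effect; the text of the record puts the active cut at -80%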
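Calcium fluorescence in TRPML1-DL cells induced overnight with Tet: a 110 s read after compound pin addition, then a 110 s antagonist read after challenge with 54-4 at 4 uM final (EC80).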
CtBP-E1A inh – inhibitors of CtBP/E1A interaction; 340,000 tested, 0.49% active; AlphaScreen GST-E1A/His-CtBP binding, 1536-well; active compounds read low; control for the full effect not named in the record; activity change, % (concentration not given with the values); in the data active means activity change below about -65%; inconclusive means about -30% to -65%; inactive means above about -30%; note: % is set by controls: 0 for no effect and ±100 for the full control effect
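AlphaScreen with 125 nM GST-E1A and 125 nM His-CtBP (5X stocks) in Tris pH 8.0, 300 mM NaCl, BSA, Tween 20, TCEP. Compounds preincubated 2 h at 37 deg C, then glutathione donor/nickel acceptor beads added for 1 h at 37 deg C in dark.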
PINK1 expr mod – PINK1 expression modulation; Potency, µM (titrated, usually from 76.6 µM), for the others: at the highest dose activation (PINK1 increase), usual class: activators; 410,000 tested, 0.2% active; PINK1 immunofluorescence, high-content cytometry, 24 h; active = well fitted activation curve with a large enough effect; inconclusive = small, poorly fitted or top-dose-only effect; inactive = flat fitted curve, though single readings scatter; cell line not stated here;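 note: potency is the fitted concentration of half-maximal effect; % of control where 0% means no effect; nearly all actives have a fitted effect of over 65% in size; a mitochondrial uncoupler was the plate control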
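Stable cell line treated 24 h with compounds at 5 concentrations (CCCP controls), then fixed and immunostained for PINK1 plus nuclear and cell stains; PINK1 immunofluorescence quantified by laser-scanning microplate cytometry.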
Six1-Eya2 inh – inhibitors of human Six1/Eya2 interaction; activity change, % (test concentration not listed); 360,000 tested, 0.56% active; AlphaScreen GST-Six1/His-Eya2 binding, biochemical; active compounds read low; control for the full effect not named in the record; Q15475+O00167; in the data active = activity change below about -65%; inconclusive = about -30% to -65%; inactive = above about -30%; note: % is set by controls: 0 for no effect and ±100 for the full control effect
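AlphaScreen with GST-Six1 and His-Eya2 (5X mix: 250 nM and 500 nM), glutathione donor and nickel acceptor beads; buffer 50 mM Tris pH 8.0, 300 mM NaCl, 1 mM TCEP; 1 h at 37 C in the dark.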
Starred values were filed as active, the others as inactive; ? = inconclusive; . = not tested or not shown; & = joins results of further samples; [ ] = dose if it differs, or a comment.

item	Structure	TRPML1 agonist	D2 agonist	TRPML1 inh	CtBP-E1A inh	PINK1 expr mod	Six1-Eya2 inh
1	O=C1CCC(C(=O)N2CCOCC2)CN1Cc1cccc(C(F)(F)F)c1 (configuration not stated)	-0.3	-5.9	18	4	-0.7%	-12
2	CCOc1ccc(S(=O)(=O)N2CCC(C(=O)OCc3ccc(OC)cc3)CC2)cc1	1.7	1.0	25	-12	-2.1%	7
3	COc1ccc(NC(=O)c2ccccc2NC(=O)C2CC=CCC2C(=O)O)cc1 (configuration not stated)	-0.6	-0.1	0	0	-0.1%	26
4	Cn1nc(-c2ccccc2)c(-c2nc(-c3cccc(Cl)c3)no2)c1Cl	-1.2	-4.1	22	4	11%	3
5	O=C(NC1CCCCC1)C1CCC(CNS(=O)(=O)c2ccccc2)CC1 (configuration not stated)	0.0	-4.2	-12	3	4.8%	1
6	COC(=O)CSc1nsc(SCC(=O)OC)n1	-1.1	-1.8	-14	0	-1.1%	7
7	Cc1cc(/C=C2\SC(=S)N(Cc3ccco3)C2=O)c(C)n1-c1cccnc1	16	0.2	6	4	?	7
8	Cn1c2ccccc2c2cc(/C=N/NC(=O)c3ccc(O)cc3O)ccc21	1.4	0.5	8	-4	1.3%	1
9	Cc1ccc(NC(=O)CSCC#N)cc1Cl	-0.2	-7.2	-4	-22	0.3%	2
10	CCOc1ccc(-n2c(=O)cc(N3CCN(c4ccccc4)CC3)[nH]c2=O)cc1	-0.3	-0.4	33	0	3.7%[38.3 µM]	1
11	CCOc1ncccc1C(=O)Nc1ncc(C)s1	-0.6	-3.6	-14	0	1.3%	1
12	CCOC(=O)N1CCC(NS(=O)(=O)c2ccccc2)CC1	-0.3	-5.0	-4	.	1.3%	6

Single records, from the list above. Order of values: TRPML1 agonist	D2 agonist	TRPML1 inh	CtBP-E1A inh	PINK1 expr mod	Six1-Eya2 inh
Listed for `CCOc1ncccc1C(=O)Nc1ncc(C)s1` → -0.6	-3.6	-14	0	1.3%	1
Listed for `Cc1ccc(NC(=O)CSCC#N)cc1Cl` → -0.2	-7.2	-4	-22	0.3%	2
Listed for `O=C1CCC(C(=O)N2CCOCC2)CN1Cc1cccc(C(F)(F)F)c1` (configuration not stated) → -0.3	-5.9	18	4	-0.7%	-12
Listed for `CCOc1ccc(S(=O)(=O)N2CCC(C(=O)OCc3ccc(OC)cc3)CC2)cc1` → 1.7	1.0	25	-12	-2.1%	7

Further results.
item	Structure	TRPML1 agonist	D2 agonist	TRPML1 inh	CtBP-E1A inh	PINK1 expr mod	Six1-Eya2 inh
13	COc1ccccc1-c1nc(SCC(=O)c2ccccc2)n[nH]1	0.5	.	2	.	-0.3%	.
14	NCCNc1cc(N2CCCC2)ccc1[N+](=O)[O-]	-0.4	-6.2	2	-18	-2.0%	-7
15	O=C(NCCCCc1ccccc1)C1CC(c2ccc(C(F)(F)F)cc2)=NO1 (configuration not stated)	4.0	0.9	-7	.	3.1%	7
16	Cc1ccc(C)c(N(C(=O)CCC(=O)Nc2cc(C)on2)C(C(=O)NC2CCCC2)c2ccco2)c1 (configuration not stated)	-0.8	-2.4	28	4	-0.7%	0
17	CN(c1ccccc1)S(=O)(=O)c1ccc(Cl)c(C(=O)Nc2ccncc2)c1	0.1	-3.6	-10	.	-1.4%	1
18	Cc1c(Cc2ccccc2)c(=O)oc2c(C)c(OCC(=O)NCC3CCC(C(=O)O)CC3)ccc12 (configuration not stated)	.	-4.7	.	-2	-0.1%	-7
19	NCCCCCC(=O)N/N=C/c1coc2ccccc2c1=O	-0.3	-5.5	1	-2	-0.3%	2
20	CC(C)(CO)NC(=O)CCCOc1ccc(Cl)cc1Cl	-0.3	-0.2	5	8	3.9%[38.3 µM]	3
21	CCC/C=N/NC(=O)c1cc(-c2ccccc2)nc2ccccc12	1.3	4.1	7	-10	0.3%	-1
22	CCN1CCCC1CNS(=O)(=O)c1ccc(C(=O)Nc2ccccc2)cc1 (configuration not stated)	1.4	-2.2	-7	3	-0.5%	3
23	O=C(O)CSc1nnc(COc2cccc3ccccc23)n1Cc1ccccc1	-0.5	-4.3	16	-5	0.4%	3
24	COCc1cc(C)nc(SC)c1C#N	0.2	-3.0	23	-3	-0.3%	3

(listing goes on)
item	Structure	TRPML1 agonist	D2 agonist	TRPML1 inh	CtBP-E1A inh	PINK1 expr mod	Six1-Eya2 inh
25	O=c1[nH]n(-c2ncnc3c2cnn3-c2ccccc2)c(=O)c2ccccc12	-0.7	-3.0	-5	-2	-1.8%	4
26	COC(=O)[C@H](CCSC)NC(=O)Nc1cc(OC)cc(OC)c1	4.4	0.5	24	5	-0.7%	-5
27	Cc1cccc(C)c1OCc1cc(C(=O)N2CCC(c3ccccc3)CC2)no1	1.9	-3.7	18	10	-1.0%	-14
28	Cn1c(CCNC(=O)c2ccc(F)cc2)nc2ccccc21	-0.7	-4.4	9	6	-3.4%	-3
29	CCN1CCN(S(=O)(=O)c2ccc3c(c2)NC(=O)CS3)CC1	-0.7	-8.0	6	4	1.1%	3
30	COc1ccc(-n2c(COc3ccc(C)cc3)nnc2SCC(N)=O)cc1	0.5	-1.5	-14	-3	1.2%	9
31	c1ccc(-c2csc(N3CCOCC3)n2)cc1	0.3	-2.0	4	-4	0.5%	-3
32	O=C(COC(=O)c1ccc2ncsc2c1)Nc1cc([N+](=O)[O-])ccc1Cl	1.9	5.5	33	-4	13%	-2
33	CCOC(=O)c1cccc(-n2c(C)nc3ccccc3c2=O)c1	-0.5	-1.7	-9	5	-1.1%	0
34	O=C(COC(=O)c1cccc(S(=O)(=O)N2CCCC2)c1)Nc1ccccc1C(F)(F)F	2.8	-4.7	-4	1	-0.3%	6
35	Cc1ccc2c(c1)sc1nncn12	-0.3	-2.7	15	-5	-1.0%	0
36	O=C(C1CCC(=O)N1Cc1cccs1)N1CCOCC1 (configuration not stated)	-0.1	-0.5	-4	7	0.5%	6

(next part)
item	Structure	TRPML1 agonist	D2 agonist	TRPML1 inh	CtBP-E1A inh	PINK1 expr mod	Six1-Eya2 inh
37	Cc1ccc(-n2nc3c(N4CCC(C(=O)NCCc5ccccc5C)CC4)nnc(C)c3c2C)cc1	0.7&1.1	1.0	8&10	-8	3.9%&1.8%	-7
38	COc1cc(OC)c(NC(=S)Nc2cc(Cl)cc(Cl)c2)cc1Cl	0.7	-6.6	-5	0	?	-3
39	CC(C)(C)S(=O)(=O)c1cnc(N2CCCCC2)nc1N	-0.4	-12	-1	-4	1.4%	-15
40	O=C(/C=C/[C@H]1O[C@@H](n2ccc(=O)[nH]c2=O)[C@H](O)[C@@H]1O)NCc1cccnc1	0.4	-1.9	-16	14	1.4%	1
41	CCOc1ccc(C(=O)NC2CC(=O)N(c3ccc(C)cc3)C2)cc1OCC (configuration not stated)	-0.4	.	-14	.	-0.3%	.
42	C=CCNC(=S)N1CCC(C(=O)c2ccc3c(c2)OCCO3)CC1	-0.3	-2.5	6	0	0.0%	-4
43	O=C(/C=C/c1ccc(-c2ccccc2)cc1)NCc1cccnc1	-0.4	12	1	-3	0.2%	-2
44	Cc1ccc(/C=C2/SC(=S)N(CCC(=O)NCCCN3CCOCC3)C2=O)cc1	-0.3	-0.2	-9	-30	4.0%	3
45	COc1ccc(NC(=O)C2CC3CCC2C3)c(OC)c1 (configuration not stated)	-0.1	-4.8	7	-2	0.6%	16
46	COCc1cccc(-c2csc(C(NC(C)=O)c3cccc(F)c3)n2)c1 (configuration not stated)	-0.9	-2.2	.	2	0.2%	-1
47	COc1ccc(S(=O)(=O)N2CCOCC2)cc1NC(=O)Cc1sc(C)nc1-c1ccc(F)cc1	0.0	-0.6	3	-14	-0.8%	3
48	CC(=O)Nc1ccc(-c2ccnc3c2CC(C(=O)Nc2cccc(Oc4ccccc4)c2)O3)cc1 (configuration not stated)	-0.1	-1.1	.	-8	6.2%	-3

Next section.
item	Structure	TRPML1 agonist	D2 agonist	TRPML1 inh	CtBP-E1A inh	PINK1 expr mod	Six1-Eya2 inh
49	Cc1c(C(=O)N2CCCCC2)c(S(=O)(=O)N2c3ccccc3CC2C)c(C)n1C (configuration not stated)	0.5	0.7	4	1	0.6%	-1
50	CCOC(=O)C1=CCN(S(=O)(=O)c2ccc(C)cc2)C1c1ccc(CC)cc1 (configuration not stated)	-0.3	-5.3	-27	-5	5.1%	18
51	O=C(O)Cc1c[nH]c2ccccc12	.	-4.8	.	-11	-0.7%	10
52	CCOc1ccc(OCc2ccc(C(=O)Nc3cccnc3)o2)cc1	5.4	1.3	-10	-4	-1.1%	0
53	C[C@H](c1ccccc1)N1C[C@@H](COCc2ccccc2)Oc2cc(N3CCC[C@@H]3CO)ccc2S1(=O)=O	-0.3	.	.	-16	0.4%	3
54	CCOC(=O)C1CCN(C(=O)c2cc3ccccc3oc2=O)CC1	.	1.8	.	-10	2.1%	8
55	O=C1C2C3CCC(C3)C2C(=O)N1c1ccc(OS(=O)(=O)c2ccccc2)cc1 (configuration not stated)	2.4	0.6	11	4	-1.4%	10
56	O=C(Cc1ccc(F)cc1)N(c1ccccc1)C1C=CS(=O)(=O)C1 (configuration not stated)	-0.5	-4.2	3	9	-4.4%[38.3 µM]	-1
57	CC(C)(C)C(=O)CSc1nc2c(c(-c3cccs3)c1C#N)CCC2	0.9	-7.0	-6	.	3.3%	3
58	Nc1nnc(-c2ccc(Cl)cc2)o1	0.5	3.0	-26	5	0.1%	0
59	COc1ccc(/C=[N+](\[O-])C2N(c3ccccc3)C(=S)SC2(C)C)cc1OC (configuration not stated)	-0.8	-2.9	-1	6	-0.8%	2
60	O=C(CN1CCOCC1)Nc1cccc([N+](=O)[O-])c1	-1.2	-0.2	13	1	2.2%	3

Additional results:
item	Structure	TRPML1 agonist	D2 agonist	TRPML1 inh	CtBP-E1A inh	PINK1 expr mod	Six1-Eya2 inh
61	CCOC(=O)Nc1sc(C)c(C)c1C(=O)OCC	0.4	-0.1	-6	22	8.8%	13
62	CCOC(=O)[C@H]1[C@H]2COc3ccccc3[C@@H]2N2C(=O)c3ccc(C)cc3NC(=O)[C@@]12C	-0.1	-3.3	-7	-22	1.6%	-19
63	COc1ccc(S(=O)(=O)N2CCCN(CC(=O)Nc3ccc(NC(C)=O)cc3)CC2)cc1	-0.5&-0.9	-2.9	-7&-20	-2	1.7%&1.8%	-6
64	C=CCc1ccc(OCc2ccc(C(=O)Nc3ccc(NC(C)=O)cc3)o2)c(OC)c1	2.0&3.3	9.1	-19&-16	-5	4.9%&4.6%	-1
65	CCc1nc2ccc(C(=O)NCCOc3ccc(OC)cc3)cn2c1N(CCC(C)C)CCN(C)C	-0.9	-4.5	47	0	4.6%	?
